VDR inh – inhibitors of human vitamin D receptor; VDR-SRC2-3 peptide fluorescence polarization, 2 h; 400,000 tested, 0.93% active; P11473; Potency, µM, for the others: max response, negative = inhibition, actives largely listed as inhibitors; active means well fitted inhibition curve with a large enough effect; inconclusive means small, poorly fitted or top-dose-only effect, or another doubt; inactive means no such curve, though single readings can be large or run the other way; further: series mostly up to about 120 µM
Target sequence (P11473 whole entry, looked up): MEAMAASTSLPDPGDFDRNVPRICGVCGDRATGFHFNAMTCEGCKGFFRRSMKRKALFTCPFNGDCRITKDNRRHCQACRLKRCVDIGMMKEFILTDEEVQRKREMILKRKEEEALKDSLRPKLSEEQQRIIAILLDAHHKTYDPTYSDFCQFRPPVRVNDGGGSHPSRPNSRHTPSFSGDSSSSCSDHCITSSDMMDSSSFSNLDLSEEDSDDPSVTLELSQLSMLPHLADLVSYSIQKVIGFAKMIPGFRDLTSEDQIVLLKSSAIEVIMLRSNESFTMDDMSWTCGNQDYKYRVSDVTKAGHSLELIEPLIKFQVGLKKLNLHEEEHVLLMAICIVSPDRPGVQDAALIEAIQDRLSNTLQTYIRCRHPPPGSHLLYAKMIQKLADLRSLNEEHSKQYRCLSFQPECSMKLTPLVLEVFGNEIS
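Signal is fluorescence polarization, reporting how far test compounds block the interaction of VDR with the SRC2-3 coregulator peptide after a 2 h room-temperature incubation.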
The depositor's hits bear a star; ? = inconclusive; & = joins results of further samples. On the % scale 0 is the no-effect control and ±100 the full control effect; potency means the concentration at half of the fitted maximal effect.

compound | VDR inh
COc1ccc(OCC(=O)NC2CCCc3ccccc32)cc1 (stereo not drawn) | 7%
O=C(N/N=C/c1ccc(F)cc1)c1ccncc1 | -12%
Cc1nnc(SCC(=O)NCc2ccco2)[nH]c1=O | 5%
CC1=CC(c2ccc(Cl)cc2)n2nc(NC(=O)c3ccccc3)nc2N1 (stereo not drawn) | 5%
CCOc1ccc(CNC(=O)Cn2nc(C)n3nc(-c4ccccc4)cc3c2=O)cc1 | -21%
COc1ccc(-n2nc(C(=O)Nc3cccc(C)n3)c3c4ccccc4n(C)c3c2=O)cc1 | -3%
CCC1=C([N+](=O)[O-])C(c2ccc3c(c2)OCO3)NC(=O)N1 (stereo not drawn) | 5%
CCN1CCc2c(OCC(=O)Nc3ccccc3)cccc2C1=O | 0%
CCN(C(=O)CCc1nc(-c2ccccc2F)no1)c1cc(OC)ccc1OC | 6%
Cn1cc(/C=C2\SC(=O)NC2=S)c2ccccc21 | ?
COc1ccc(CCNC(=O)Cn2c(=O)nc(-c3ccccc3)c3ccccc32)cc1OC | 6%
COc1cc(C(=O)NC2CCN(Cc3ccccc3)CC2)cc(Cl)c1OC(C)C | -5%
CCN(CC)CCNS(=O)(=O)c1ccc(C(=O)NN)cc1 | -4%
Cc1ccc(NC(=O)CC2SC(=Nc3ccc(O)cc3)NC2=O)cc1 (stereo not drawn) | 5%
COc1ccccc1NS(=O)(=O)c1cccc(C(=O)NCC(c2ccco2)N2CCCC2)c1 (stereo not drawn) | -9%
O=C(NCc1nnc2c(C(F)(F)F)cc(Cl)cn12)c1ccco1 | -14%
Cc1csc(NC(=O)CCCC(=O)O)c1-c1nc2ccccc2s1 | 8%
Cc1ccc(S(=O)(=O)Nc2ccccc2C(=O)N2CCCCCC2)cc1 | 5%
Cc1cccc(OCc2nnc(SCC(=O)N3CCCC3)o2)c1 | 6%
CCc1c(O)nc(SCC(=O)Nc2nc3ccccc3s2)n(C2CCCCC2)c1=O | -17%
COc1ccc(NC(=O)COC(=O)c2ccccc2SCC(=O)N2CCCC2)cc1 | 2%
Cc1ccc(S(=O)(=O)Nc2c(O)c3ccccc3oc2=O)cc1C | -7%
CCOc1ccccc1C(=O)N[C@H](C(=O)Nc1cc(S(=O)(=O)N(C)C)ccc1OC)C(C)C | 1%
COc1cccc(NC(=O)CN(C)C(=O)CCNC(=O)c2ccc(Br)cc2)c1 | 8%
CNC(=O)CSCc1c(F)cccc1Cl | 4%
CCOC(=O)N1CCN(C(=O)Nc2ccc3nc(C)sc3c2)CC1 | -2%
C[C@@](N)(C(=O)O)c1ccc(C(=O)O)cc1 | -2%&-10%
CCOC(=O)CNC(=O)CSc1nc(-c2ccccc2)ns1 | ?
CC(C)NC(=O)CCNS(=O)(=O)c1ccc(Br)cc1 | 12%
Cc1ccc(NC(=O)COC(=O)CCCC2=NS(=O)(=O)c3ccccc3N2)cc1C | -12%
CNC(=O)c1ccc2nc(CCc3ccccc3)oc2c1 | 6%
COCC(C)NC(=S)Nc1ccccc1[N+](=O)[O-] (stereo not drawn) | -15%
CCOC(=O)N1CCN(c2ccc(C(=O)CC)cc2F)CC1 | 19%
Cc1ccc(C)c(CN2C(=O)c3ccccc3S(=O)(=O)c3ccc(C(=O)Nc4cc(F)ccc4F)cc32)c1 | 8%
Cc1ccc(NC(=O)c2c(C)nn(-c3ccccc3)c2Cl)cc1 | -6%
CCC(CC)c1nn2c(=O)cc(COc3ccc(NC(=O)c4ccccc4C)cc3)nc2s1 | 7%
COC1C(O)CC(=O)OC(C)C/C=C/C=C/[C@@H](OC2CCC(N(C)C)C(C)O2)C(C)C[C@@H](CC=O)[C@@H]1O[C@H]1OC(C)[C@H](O[C@@H]2C[C@@](C)(O)C(O)C(C)O2)C(N(C)C)C1O (stereo partly drawn) | -9%
COc1ccc(Br)cc1CNC(=O)CN1C(=O)CCCc2ccccc21 | 11%
CC(C)Oc1c(Br)cc(Br)cc1/C=N/NC(N)=S | -24%
CC(=O)OCC(=O)C1(O)CCC2C3CC(C)C4=CC(=O)CCC4(C)C3C(O)CC21C (stereo not drawn) | -10%
Cc1nn(C)c(C)c1CS(=O)(=O)c1ccccc1 | 23%
CC(C)N(C(=S)Nc1cccnc1)c1ccccc1 | -16%
CC(=O)c1cccc(NC(=O)NC2CC3CCCC(C2)N3CC(C)C)c1 (stereo not drawn) | 4%
Cc1cc(NS(=O)(=O)c2ccc(NC(=S)NC(=O)c3cccnc3)cc2)no1 | 0%
O=C(NCc1ccccn1)c1ccc(Cl)s1 | -24%
Cc1cccc(N2CCN(C3=C(c4ccccc4)C(=O)c4ccccc43)CC2)c1C | -21%
Cc1cc(=O)n(CCCO)c(O)c1C#N | 8%
CC(=O)NCc1ccc(C(=O)COC(=O)COc2ccc(Cl)c(C)c2)s1 | 16%
CC(=O)c1noc(C)c1C(=O)Nc1nccs1 | 3%
COc1ccccc1Nc1nc2c(s1)CCC2 | -18%
CCc1nnc(NC(=O)CN2C(=O)NC3(CC(C)CC(C)(C)C3)C2=O)s1 (stereo not drawn) | 8%
NC(=O)[C@@H]1CCCN1C(=O)c1ccc2nc(Cc3ccccc3F)oc2c1 | 4%
O=C(Nc1ccc2c(c1)CCC2)c1cc2ccccc2o1 | 0%
CCc1cc2c3c(c(=O)oc2cc1O)CCCC3 | ?
Cc1cc(-c2csc(NC(=O)c3ccccc3C(F)(F)F)n2)c(C)n1Cc1ccccc1 | 7%
Cc1cc(/C=C2\SC(=O)N(CC(=O)Nc3ccccc3F)C2=O)c(C)n1C | -2%
COc1ccccc1NC(=O)C1=C(C)NC(=O)NC1c1ccco1 (stereo not drawn) | -14%
CC(=O)c1c(C)[nH]c(C(=O)Nc2ccc(S(=O)(=O)N(C)C)cc2)c1C | -5%
S=C(Nc1cccc2ccccc12)NN1CCOCC1 | -2%
COc1ccc(CCNC(=O)C2CCCN2S(=O)(=O)c2cccc3nsnc23)cc1OC (stereo not drawn) | -14%

Next part:
smiles,VDR inh
O=C(CC1COc2ccccc2O1)NCCc1ccccc1 (stereo not drawn),0%
O=C1NC(=S)NC(=O)C1=Cc1ccccc1C(=O)O,?
CCCOc1ccc(NC(=O)CC2C(=O)N(c3ccc(OCC)cc3)C(=S)N2C2CC2)cc1 (stereo not drawn),1%
COc1ccc(NC(=O)/C(N=Nc2ccc(Cl)c(S(=O)(=O)Nc3ccc(Cl)cc3)c2)=C(\C)O)cc1,4%
COc1ccc([N+](=O)[O-])cc1NC(=O)CC1SC(=Nc2cccc(C)c2C)N(/N=C/c2cccc(OC)c2OC)C1=O (stereo not drawn),20%&7%
COc1ccc(-c2nn(-c3ccccc3)cc2/C=C2/SC(=S)N(CCC(=O)O)C2=O)c(C)c1,?
O=C(CN1C(=O)C2C3CC(C(Br)C3Br)C2C1=O)Nc1ccc(C(=O)O)cc1 (stereo not drawn),-25%
Cc1ccc(C)c(S(=O)(=O)NCCCc2ccccc2)c1,14%
CCCOc1cccc(C(=O)NCCNC(=O)c2ccc(C)nc2)c1,-10%
Cc1cc(SCC(=O)N/N=C/c2cccnc2)nc2c(C)cccc12,-11%
C/C(=N/OC(=O)c1ccc(C)cc1)C(=O)c1ccc(Br)cc1,13%
CS(=O)(=O)c1ccc(-c2cccc(NC(=O)c3ccc(Br)o3)c2)nn1,-9%
Cn1ccnc1SCc1nc2c(cnn2-c2ccccc2)c(=O)[nH]1,-4%
Cn1c(CSCc2ccc(Cl)cc2Cl)n[nH]c1=S,-9%
COc1ccccc1CCC(=O)OCC(=O)Nc1c(Br)cc(C)cc1Br,8%
CSc1nc(-c2ccccc2)nn1C(=O)c1ccc(Cl)cc1,-19%
Cc1ccc(/C=N/NC(=O)C2=NNC(c3ccccc3)(c3ccccc3)C2)c(O)c1,5%
O=C1CCCC(O)=C1C1NCCc2ccccc21 (stereo not drawn),-6%
COc1ccc(C2C(C#N)=C(N)OC3=C2C(=O)CCC3)c(OC)c1OC (stereo not drawn),-15%
COc1cccc(CC2(CO)CCCN(Cc3cc(F)ccc3-n3cccn3)C2)c1 (stereo not drawn),9%
O=C(Nc1ccccc1-c1ccccc1)NC1CCN(CC(=O)N2CCOCC2)CC1,-6%
Cc1ccc2c(c1)N(C(=O)CCC(=O)Nc1ccccc1Br)CC(C)O2 (stereo not drawn),-3%
O=C(Cn1cc(C(F)(F)F)ccc1=O)N1CCc2ccccc21,-9%
O=C(c1ccccc1Sc1cccc2ccccc12)N1CCOCC1,2%
CCCCOc1ccc(C(=O)N2CCCCCC2)cc1,9%
Cc1cc(C(=O)CSc2nnc(-c3ccc(OC(F)F)cc3)o2)c(C)n1Cc1cccs1,-5%
O=C(CN1C(=O)c2ccccc2C1=O)c1ccc(F)cc1,-11%
CC(C)OCc1ccc(C(=O)N2CCN(CC(=O)N3CCCC3)CC2)cc1,-6%
O=C(/C=C/c1cccc(C(F)(F)F)c1)Nc1cccc(C(F)(F)F)c1,6%
O=C1CCC([N+](=O)[O-])C(c2ccc(Cl)c([N+](=O)[O-])c2)N1 (stereo not drawn),-6%
CC(C)C[C@H]1CN=C(Nc2ccccc2)N1CCc1ccc(F)cc1,-1%
Cc1cc(C)c(S(=O)(=O)N2CCC3(CC2)OCCN3S(=O)(=O)c2cccs2)c(C)c1,-4%
COc1ccc(NC(=O)c2c(C)nn(-c3ccccc3)c2Cl)cc1,6%
O=C(NC12CC3CC(CC(C3)C1)C2)c1cc(F)c(F)cc1Cl,?
O=C(O)C1C2C=CC(CC2)C1C(=O)O (stereo not drawn),26%
C/C(=N\OCC(=O)NC12CC3CC(CC(C3)C1)C2)c1cc2ccccc2o1,-11%
COc1ccccc1-c1nnn(CC#N)n1,17%
COC(=O)c1ccc(Cl)cc1NC(=O)N(Cc1ccc(C)o1)C1CCN(C(C)=O)CC1,-5%
COC(C[C@H]1O[C@@H]1[C@@H](O)[C@H](C)OCc1ccccc1)OC,-2%
O=C1[C@H](O)[C@@H](O)C(=O)N1Cc1ccccc1,-18%
CSC[C@H](NC(=O)COc1cc2c(c3oc(=O)cc(C)c13)CCC(C)(C)O2)C(=O)O,-4%
CC1=C(C(=O)Nc2ccc(Cl)cc2)C(c2ccccc2C)n2ncc(C(=O)Nc3ccc(C)cc3)c2N1 (stereo not drawn),-11%
CCOC(=O)N1CCC(Nc2c(NCCCN(CC)CC)c(=O)c2=O)CC1,-7%
CCNC(=S)Nc1cc(OCC)c(NC(=O)c2ccco2)cc1OCC,-12%
Nc1nc2ccccc2n1CCN1CCCC1,-1%
O=C(NCCCN1CCOCC1)c1cccc(NC(=O)c2ccccc2)c1,9%
O=C(Nc1ccc2oc(-c3cccnc3)nc2c1)c1ccc(-c2cccc(Cl)c2)o1,-17%
COCCN(C(=S)Nc1ccccc1OC)C1CCN(C(C)C)CC1,-1%
COC(=O)NCC(c1ccco1)N1CCN(c2ccc(OC)cc2)CC1 (stereo not drawn),-7%
COc1ccc(/C=N/NC(=O)CN(CCc2ccccc2)S(=O)(=O)c2ccc(NC(C)=O)cc2)cc1OC,0%

Other records.
smiles,VDR inh
CCN(CC)CCCNc1sc(S(=O)(=O)c2ccccc2)nc1S(=O)(=O)c1ccc(Cl)cc1,3%
CC(C)(Oc1ccc(C2CC2(Cl)Cl)cc1)C(=O)O (stereo not drawn),-13%&-14%&-2%
OC(CNCc1ccc(Cl)cc1)COc1ccccc1 (stereo not drawn),13%
Cc1ccccc1OCC(=O)Nc1ccc2nc(SCc3ccccc3)sc2c1,-10%
C=CCn1c(SCc2nc3scc(-c4ccccc4)c3c(=O)[nH]2)nnc1-c1ccccc1F,-14%
CN1CCN(c2ncc3nc(-c4cccs4)c(=O)n(Cc4cccs4)c3n2)CC1,?
O=C(NC1CCCCC1)NC12CC3CC(CC(C3)C1)C2,-9%
COc1ccc2[nH]c3c(c2c1)CCN1C(=O)C(CC(=O)NCCCn2ccnc2)C[C@H](C(=O)N2CCCCC2)[C@@]31C (stereo partly drawn),-2%
CN1C(=O)C(CC(=O)Nc2ccc3c(c2)Cc2ccccc2-3)N(C)C1=O (stereo not drawn),3%
CN(C)S(=O)(=O)c1cccc(NC(=O)/C=C/c2ccc(S(=O)(=O)N3CCOCC3)cc2)c1,?
CCc1ccc(OCCCC(=O)Nc2ccc(N3CCCCC3)cc2)cc1,10%
COc1ccc2cc(C(=O)C3CCCN(C(=O)c4cc(=O)n(C)c(=O)n4C)C3)ccc2c1 (stereo not drawn),?
COC(=O)c1sc(-c2ccc(C(C)(C)C)cc2)cc1NC(=O)CSCC(=O)O,-18%

Reformatted with values ahead of the structure: part of the list above
| VDR inh | smiles |
| --- | --- |
| 9% | O=C(NCCCN1CCOCC1)c1cccc(NC(=O)c2ccccc2)c1 |
| -17% | O=C(Nc1ccc2oc(-c3cccnc3)nc2c1)c1ccc(-c2cccc(Cl)c2)o1 |
| -1% | COCCN(C(=S)Nc1ccccc1OC)C1CCN(C(C)C)CC1 |
| -7% | COC(=O)NCC(c1ccco1)N1CCN(c2ccc(OC)cc2)CC1 (stereo not drawn) |
| 0% | COc1ccc(/C=N/NC(=O)CN(CCc2ccccc2)S(=O)(=O)c2ccc(NC(C)=O)cc2)cc1OC |
| 3% | CCN(CC)CCCNc1sc(S(=O)(=O)c2ccccc2)nc1S(=O)(=O)c1ccc(Cl)cc1 |
| -13%&-14%&-2% | CC(C)(Oc1ccc(C2CC2(Cl)Cl)cc1)C(=O)O (stereo not drawn) |
| 13% | OC(CNCc1ccc(Cl)cc1)COc1ccccc1 (stereo not drawn) |
| -10% | Cc1ccccc1OCC(=O)Nc1ccc2nc(SCc3ccccc3)sc2c1 |
| -14% | C=CCn1c(SCc2nc3scc(-c4ccccc4)c3c(=O)[nH]2)nnc1-c1ccccc1F |
| ? | CN1CCN(c2ncc3nc(-c4cccs4)c(=O)n(Cc4cccs4)c3n2)CC1 |
| -9% | O=C(NC1CCCCC1)NC12CC3CC(CC(C3)C1)C2 |
| -2% | COc1ccc2[nH]c3c(c2c1)CCN1C(=O)C(CC(=O)NCCCn2ccnc2)C[C@H](C(=O)N2CCCCC2)[C@@]31C (stereo partly drawn) |
| 3% | CN1C(=O)C(CC(=O)Nc2ccc3c(c2)Cc2ccccc2-3)N(C)C1=O (stereo not drawn) |
| ? | CN(C)S(=O)(=O)c1cccc(NC(=O)/C=C/c2ccc(S(=O)(=O)N3CCOCC3)cc2)c1 |

Screening results deposited in PubChem BioAssay by National Center for Advancing Translational Sciences (NCATS).

This is a subset, so the mix of outcomes need not match the whole.
